2A StopGo = High Throughput Screening for Foot and Mouth Disease Virus Antivirals | AID 1159524, 2015 | Potency, µM (highest dose often 57.9 µM), without a hit: at the top dose signal change, negative = less light | hit rate 1.2% among 410,000 | human cells with a luciferase reporter of 2A StopGo recoding; control for the full effect not named in the record; active = well fitted falling curve with a large enough effect; inconclusive = small, poorly fitted or top-dose-only effect; inactive = no such curve, though single readings can be large or run the other way; tested in HEK293T cells; further: on the % scale 0 is the no-effect control and ±100 the full control effect; nearly all actives have a fitted effect of over 45% in size; luciferase light after 4 h
Lassa entry inh = qHTS for Inhibitors of binding or entry into cells for Lassa Virus | Lassa virus pseudotype entry inhibition, cell reporter; control for the full effect not named in the record | Potency, µM (series often up to 37.9 µM), for inactives: at the top dose activity change, negative = inhibition, usual class: inhibitors | hit rate 1.2% among 300,000; active means well fitted inhibition curve with a large enough effect; inconclusive means small, poorly fitted or top-dose-only effect, or effect the other way; inactive means flat fitted curve, though single readings scatter; tested in HEK293 cells; further: on the % scale 0 is the no-effect control and ±100 the full control effect; nearly all actives have a fitted effect of over 50% in size; luciferase read-out
Marburg entry inh = qHTS for inhibitors of binding or entry into cells for Marburg Virus; Marburg virus pseudotyped entry inhibition, cell reporter; control for the full effect not named in the record; about a third of the inactives were read at about 46 µM; Potency, µM (doses to about 37.8 µM), for the others: at the highest dose activity change, negative = inhibition, actives largely listed as inhibitors; hit rate 1.8% among 300,000; AID 540276, 2011; active = well fitted inhibition curve with a large enough effect; inconclusive = small, poorly fitted or top-dose-only effect, or effect the other way; inactive = flat fitted curve, though single readings scatter; tested in HEK293 cells; about a fifth of its hits are not listed in these tables; further: on the % scale 0 is the no-effect control and ±100 the full control effect; luciferase read-out
Cruzain inh noDet = qHTS Assay for Promiscuous and Specific Inhibitors of Cruzain (without detergent). Potency, µM, for the others: max response, negative = inhibition, most hits filed as inhibitors. Cruzipain (Trypanosoma cruzi), P25779. hit rate 2.3% among 200,000. purified cruzain, Z-FR-AMC fluorescence, no detergent; active means well fitted curve in the direction sought with a large enough effect; inconclusive means small, poorly fitted or top-dose-only effect, or another doubt; inactive means no such curve, though single readings can be large; an effect the other way counts as inactive or inconclusive;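 further: plate controls were enzyme without inhibitor for no effect and buffer without enzyme for full effect; nearly all actives have a fitted effect of over 40% in size; top concentration of the series not given in the record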
Target sequence (P25779 123-467 limits assumed): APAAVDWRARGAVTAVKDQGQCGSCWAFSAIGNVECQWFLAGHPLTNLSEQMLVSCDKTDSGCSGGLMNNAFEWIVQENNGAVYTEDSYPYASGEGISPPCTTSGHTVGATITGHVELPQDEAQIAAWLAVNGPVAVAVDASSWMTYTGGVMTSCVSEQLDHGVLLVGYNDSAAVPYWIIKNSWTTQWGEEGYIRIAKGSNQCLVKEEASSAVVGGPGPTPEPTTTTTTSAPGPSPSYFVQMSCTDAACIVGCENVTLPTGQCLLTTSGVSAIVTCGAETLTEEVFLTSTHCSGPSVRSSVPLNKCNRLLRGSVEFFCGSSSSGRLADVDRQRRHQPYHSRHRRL
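Purified cruzain at 1.5 nM, pre-incubated 15 min with compound at room temperature in 100 mM sodium acetate pH 5.5, 5 mM DTT, 0.00005% Triton X-100. Reaction started with 2 uM Z-FR-AMC; AMC fluorescence increase over 60 s gives rate.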
SARS PLpro yeast = qHTS of Yeast-based Assay for SARS-CoV PLP; AID 485353, 2010; S. cerevisiae expressing SARS-CoV PLpro, growth rescue; control for the full effect not named in the record; Potency, µM (highest dose often 32.9 µM), without a hit: at the top dose activity, positive = growth rescue; hit rate 0.19% among 330,000; further: 0% is about no effect; nearly all actives have a fitted effect of over 55% in size; growth read by luminescence after 48 h
Cruzain inh Det = qHTS Assay for Promiscuous and Specific Inhibitors of Cruzain (with detergent); AID 1478, 2009; Potency, µM, without a hit: max response, negative = inhibition, actives largely listed as inhibitors; hit rate 0.43% among 200,000; purified cruzain, Z-FR-AMC fluorescence, 0.01% Triton; Cruzipain (Trypanosoma cruzi), P25779; active means well fitted curve in the direction sought with a large enough effect; inconclusive means small, poorly fitted or top-dose-only effect, or another doubt; inactive means no such curve, though single readings can be large; an effect the other way counts as inactive or inconclusive;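 further: plate controls were neutral wells for no effect and buffer without enzyme for full effect; nearly all actives have a fitted effect of over 40% in size; top concentration of the series not given in the record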
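Sodium acetate buffer (100 mM, pH 5.5) containing 5 mM DTT and 0.01% Triton X-100 hosted 1.5 nM cruzain and test compound for 15 min at room temperature. Cleavage of 2 uM Z-FR-AMC was then tracked by fluorescence.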
NS1 inh = qHTS Assay for Inhibitors of Influenza NS1 Protein Function; S. cerevisiae slowed by influenza A NS1, growth recovery by OD600; Potency, µM (highest dose often 46.1 µM), inactives show at the highest dose activity, positive = more growth; hit rate 0.4% among 270,000; further: actives are rising curves; nearly all actives have a fitted effect of over 50% in size
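S. cerevisiae expressing influenza A NS1, grown in glucose, washed, then diluted 1:100 into pH 6.0 -URA galactose medium with 23 nl compound. Growth recovery read as OD600; NS1-free strain serves as control.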
RE007 growth inh = qHTS Assay for Inhibitors of the HIV-1 protein Vpr | S. pombe RE007 Vpr strain, BacTiter-Glo ATP luminescence, 24 h; control for the full effect not named in the record | Potency, µM (series often up to 92.2 µM), without a hit: at the top dose activity change, negative = less growth | hit rate 0.21% among 360,000; active = well fitted falling curve with a large enough effect; inconclusive = small, poorly fitted or top-dose-only effect; inactive = no such curve, though single readings can be large or run the other way;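 further: on the % scale 0 is the no-effect control and ±100 the full control effect; nearly all actives have a fitted effect of over 50% in size; the assay follows cell death caused by Vpr and the record does not say whether a fall means rescue or toxicity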
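Fission yeast RE007 carrying one integrated HIV-1 vpr copy, seeded at OD 0.01 in PMG+AL medium with 23 nL pinned compound. Grown 24 h at 30 degrees; viability read by BacTiter-Glo luminescence after 5 min.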
* = called active by the depositor; ? = inconclusive; nt = no result given; & = joins results of further samples; [ ] = dose if it differs, or a comment. Unless noted, the call rests on the fitted dose curve; in most records, active means well fitted rising curve with a large enough effect; inconclusive means small, poorly fitted or top-dose-only effect; inactive means no such curve, though single readings can be large or run the other way. Potency means the concentration at half of the fitted maximal effect. Rows are unselected; overall some 4.6% were active at least once.

Values in the order: 2A StopGo, Lassa entry inh, Marburg entry inh, Cruzain inh noDet, SARS PLpro yeast, Cruzain inh Det, NS1 inh, RE007 growth inh
1	O=C(COc1ccccc1)Nc1nnc(COc2ccccc2)s1
→ -9%, ?, -4%, nt, -2%, nt, -2%, 3%
2	O=C(Nc1cccc(Cl)c1)C1CCCN(S(=O)(=O)c2cnc[nH]2)C1 (stereo not given)
→ 0%, nt, nt, -6%, -1%, 0.6%, ?, -5%
3	CCOc1ccc(NCCC(=O)c2ccc3c(c2)OCO3)cc1
→ nt, 10%, 13%, -24%, -11%, -7.8%, -8%, 32µM*
4	O=C(c1cccc(S(=O)(=O)N2CCCC2)c1)N1CCCc2ccccc21
→ 3%, -1%[46.1 µM], ?, nt, 6%, nt, nt, 6%
5	Nc1ccc(S(=O)(=O)NC2(C(F)(F)F)NC(=O)N(c3ccccc3Cl)C2=O)cc1 (stereo not given)
→ -14%, -1%, 0%, 8%, -1%, -3.1%, 11%, 13%
6	Cc1sc2ncnc(N/N=C/c3ccccc3O)c2c1C
→ 30%[activator], 10µM*, 3.2µM*, 26%, 1.1µM*, -11%, -47%, -50%
7	C[C@H](NC(=O)N1CCn2c1nc1ccccc12)C(=O)NCc1ccccc1
→ -5%, nt, nt, nt, ?, nt, -4%, -1%
8	CSc1nnnn1CCn1nnnc1SC
→ -20%, 7%, -8%, 5%, 8%, 6.9%, 0%, -10%
9	O=C(NCCc1ccc(Cl)cc1)C(=O)NCC(c1cccs1)S(=O)(=O)c1cccs1 (stereo not given)
→ ?, ?, nt, 6%, nt, -4.6%, nt, nt
10	COc1ccc(C(=O)NCc2nnc(SCC(=O)N3CCOCC3)o2)cc1OC
→ -17%, ?, 2%, nt, 3%, nt, nt, -6%
11	CCOC(=O)CNC(=O)CCc1nnc2ccc(N3CCC(C)CC3)nn12
→ 1%, nt, nt, nt, -1%, nt, 1%, 3%
12	CCN(CC)CCNC(=O)c1cc2cc(Br)ccc2s1
→ -6%, -53%, ?, nt, 0%, nt, nt, -11%
13	CCOC(=O)C1CCN(C(=O)CCCn2nc(C)c3c(C)n(-c4ccc(C)cc4)nc3c2=O)CC1
→ -12%, nt, nt, nt, 4%, nt, 14%, -7%
14	Cc1ccc(Cl)cc1NC(=O)c1cnn2c(C(F)F)cc(-c3ccccc3)nc12
→ -16%, -31%[46.1 µM], nt, 5%, nt, 1.8%, nt, nt
15	CN(C)S(=O)(=O)c1cccc(C(=O)N(Cc2ccc(F)cc2)Cc2ccco2)c1
→ -6%, -28%, -14%, ?, 1%, -1.2%, -12%, -6%
16	CCOC(=O)C1CCN(c2cc(=O)n(-c3ccc(OC)cc3)c(=O)[nH]2)CC1
→ -10%, nt, nt, 0%, -2%, 6.0%, 6%, 15%
17	CCCn1c(C)cc(C(=O)COC(=O)c2ccc[nH]c2=O)c1C
→ ?, ?, ?, -7%, -23%, -1.1%, -24%, -17%
18	CC(C)CC(NC(=O)C1CCC(C)CC1)C(=O)NCCN1CCOCC1 (stereo not given)
→ 9%, nt, ?, nt, 1%, nt, -10%, -1%
19	CCCc1cc(=O)oc2cc(OC(C)C(=O)NC3CC(C)(C)NC(C)(C)C3)ccc12 (stereo not given)
→ -11%, nt, nt, nt, 3%, nt, -16%, -14%
20	CCCOCC(O)CC(CC)C(=O)NNC(=S)Nc1ccccc1 (stereo not given)
→ 39%[activator], 22%[46.1 µM], 7%[46.1 µM], nt, -12%, nt, nt, 0%
21	Cc1cc(C)c(C)c(C(=O)C(=O)c2ccccc2)c1
→ -22%, ?, 14%, nt, nt, nt, nt, -1%
22	CCOC(=O)c1cc(CC)sc1NC(=O)C(c1ccccc1)c1ccccc1
→ -5%, -20%, -20%, ?, 1%, -5.0%, 28%, 2%
23	NC(=O)COC(=O)c1ccc(Oc2ccccc2)cc1
→ 8%, 8%, -11%, 12%, 4%, 1.2%, -60%, 7%
24	CC(=O)N1CC(=O)Nc2ccc(Cl)cc2C1c1ccc(F)cc1 (stereo not given)
→ 15%, 14%, ?, 18%, ?, 1.9%, -4%, 11%
25	COc1ccc(/C(N)=N/OC(=O)C2CCC(=O)N2S(=O)(=O)c2ccc(C)cc2)cc1 (stereo not given)
→ 0%, -1%, 9%, -8%, -15%, -5.8%, 16%, 12%
26	CCN=C1S/C(=C\c2cc(OCC)c(O)cc2Br)C(=O)N1CC
→ 32µM*, ?, ?, -18%, 7%, -7.9%, 2%, 8%
27	COc1ccc(C2CC(c3ccc(Br)cc3)=NN2C(=O)c2cccnc2)cc1 (stereo not given)
→ -17%, ?, ?, 13%, -60%, -8.2%, -2%, -11%
28	CCOC(=O)/C(N=Nc1ccc(F)cc1)=C(/O)c1ccc([N+](=O)[O-])cc1
→ -13%, 6%, 3%, -28%, -4%, 1.3%, 0%, 3%
29	COc1ccc(OCc2cc(C(=O)NCCN3CCCc4ccccc43)no2)c(Cl)c1
→ -18%, ?, -25%, nt, 0%, nt, 28%, 0%
30	Cc1cccc(N2C(=O)C3C4CC(C(Br)C4Br)C3C2=O)n1 (stereo not given)
→ 6%, 7%, 7%, 6%, 4%, -1.8%, 4%, 5%

Quoted from the listing:
In RE007 growth inh, no. 21 reads -1%
In Cruzain inh Det, no. 17 reads -1.1%
In 2A StopGo, no. 24 reads 15%

Further structures:
Values in the order: 2A StopGo, Lassa entry inh, Marburg entry inh, Cruzain inh noDet, SARS PLpro yeast, Cruzain inh Det, NS1 inh, RE007 growth inh
31	N/C(=N\OC(=O)/C=C/c1ccc(Br)cc1)c1ccccn1
→ 28%, ?, ?, ?, 2%, -3.0%, -8%, 1%
32	CN(C)/N=C/C=C1\CCC/C(=C/c2cccs2)C1=O
→ 64%[activator], nt, nt, nt, -3%, nt, -5%, 1%
33	CC1CC(C)(C)NCc2ccccc21 (stereo not given)
→ -17%, 17%, 3%, -1%, 3%, 3.3%, 7%, 4%
34	O=C1CC(C(=O)N2CCN(Cc3ccccc3)CC2)CN1Cc1ccccc1 (stereo not given)
→ -21%, -16%, 1%, nt, -6%, nt, nt, 12%
35	Cc1nc2ccccc2n1CC(O)COc1ccc(C(=O)O)cc1 (stereo not given)
→ 5%, -18%[46.1 µM], 14%[46.1 µM], -5%, nt, -2.1%, nt, nt
36	CC(=O)N(CC1CCCO1)c1nnc(-c2cnccn2)s1 (stereo not given)
→ 25%, 20%, -2%, -1%, 4%, 2.0%, 4%, 5%
37	CCN(C(=O)COC(=O)c1cc(S(=O)(=O)Nc2c(C)n(C)n(-c3ccccc3)c2=O)ccc1Cl)C1CCCCC1
→ -22%, ?, 18%[46.1 µM], nt, 0%, nt, nt, 4%
38	COCCNC(=O)Cn1c(=O)n(Cc2ccc(C(=O)NCc3ccco3)cc2)c(=O)c2ccccc21
→ -13%, 1%&7%, -2%&4%, ?, ?, -1.7%, ?, 8%
39	COc1ccc(-c2c3c(nc4sc(C(=O)Nc5ccc(Cl)cc5)c(N)c24)CC(C)(C)CC3=O)cc1
→ 2%, 13%[46.1 µM], 11%[46.1 µM], -8%, nt, -2.6%, nt, nt
40	CCN(CC)c1nc(OC)nc(-n2nnc(C(C)=O)c2C)n1
→ -24%, 12%, -24%, 1%, -10%, 3.9%, -14%, 1%
41	O=C(Nc1cnn(Cc2ccccc2)c1)NC12CC3CC(CC(C3)C1)C2
→ 7%, -11%, 0%, -1%, -3%, -7.0%, 1%, 13%
42	COc1ccc2c(c1OC)C(=O)OC2Nc1nc(-c2ccc([N+](=O)[O-])cc2)cs1 (stereo not given)
→ 13%, 16%[46.1 µM], 17%[46.1 µM], nt, -2%, nt, -1%, 4%
43	CCOC(=O)c1noc2ncn(CC(=O)Nc3ccc(C)c(F)c3)c(=O)c12
→ -5%, 1%[46.1 µM], nt, 8%, nt, -0.3%, nt, nt
44	CCOc1ccc(-n2nnnc2SCC(=O)Nc2cccc(O)c2)cc1
→ ?, nt, nt, nt, 9%, nt, 13%, -3%
45	COc1ccccc1CNC(=O)CCCn1c(=O)c2ccccc2n(Cc2ccc(C)cc2)c1=O
→ -10%, 21%[46.1 µM], -3%[46.1 µM], -8%, nt, -3.2%, nt, nt
46	NS(=O)(=O)c1ccc(CCNC(=O)CCCC2=NS(=O)(=O)c3ccccc3N2)cc1
→ 14%, 5%, 17%, 1%, 1%, 3.4%, 4%, 14%
47	Cc1ccc(C)c(/C(O)=C2\C(=O)C(=O)N(Cc3cccnc3)C2c2cccnc2)c1 (stereo not given)
→ 5%, 10%, ?, -3%, 25%, -5.7%, ?, 31%
48	CCc1cccc(NC(=O)C(Cc2ccccc2)NS(=O)(=O)c2ccc3c(c2)c(=O)n(C)c(=O)n3C)c1 (stereo not given)
→ -15%, 2%[46.1 µM], -27%[46.1 µM], -21%, nt, -3.2%, nt, nt

Some entries already given with just RE007 growth inh and NS1 inh.
item	SMILES	RE007 growth inh	NS1 inh
37	CCN(C(=O)COC(=O)c1cc(S(=O)(=O)Nc2c(C)n(C)n(-c3ccccc3)c2=O)ccc1Cl)C1CCCCC1	4%	nt
4	O=C(c1cccc(S(=O)(=O)N2CCCC2)c1)N1CCCc2ccccc21	6%	nt

Single records, from the list above.
Entry for O=C(Nc1cnn(Cc2ccccc2)c1)NC12CC3CC(CC(C3)C1)C2 : 2A StopGo = 7%; Lassa entry inh = -11%; Marburg entry inh = 0%; Cruzain inh noDet = -1%; SARS PLpro yeast = -3%; Cruzain inh Det = -7.0%; NS1 inh = 1%; RE007 growth inh = 13%
Entry for Cc1ccc(C)c(/C(O)=C2\C(=O)C(=O)N(Cc3cccnc3)C2c2cccnc2)c1 (stereo not given) : 2A StopGo = 5%; Lassa entry inh = 10%; Marburg entry inh = ?; Cruzain inh noDet = -3%; SARS PLpro yeast = 25%; Cruzain inh Det = -5.7%; NS1 inh = ?; RE007 growth inh = 31%
